S aureus helic: S. aureus DNA helicase inhibition; inhibition, %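 (tested at about 80 µM)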; purified S. aureus helicase, fluorescence unwinding assay; about half of the hits fall short of the stated cut; AID 485395; 0.05% of 120,000 active;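 active = both duplicates at 50% or more, or one of them with a favoured structure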;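 note: 0% = mean of negative control wells and 100% = mean of positive control wells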
MgrA-DNA mod: S. aureus MgrA-DNA binding modulation. inhibition, %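 (about 10 µg/mL by stock and volumes)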. 0.13% of 84,000 active. fluorescence polarization. AID 602314;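 active = above 50% in either of two replicates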;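 note: 0% = protein plus DNA without compound and 100% = DNA alone without protein; higher means less MgrA bound to DNA so lower polarization; one replicate is shown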
The depositor's hits bear a star. Some of the compounds tested. The share of hits here may be higher or lower than overall.

C=CCN(CC=C)Cc1c(C)[nH]c2ccc(Br)cc2c1=O was read as S aureus helic -28.
For O=S(=O)(NC1CCN(Cc2ccccc2)CC1)c1cccs1 the results were S aureus helic -32.
Screening Cc1ccc(CN(C)C(=O)c2cc3c(C)nn(-c4ccc(F)cc4)c3s2)o1 returned S aureus helic 6.
Screening N#CC1(C#N)C(c2ccc(Cl)c(Cl)c2)C1(C#N)C#N returned S aureus helic -20.
`CCOC(=O)c1ccc(N=Cc2ccc(CC)cc2)cc1` gave S aureus helic -10 and MgrA-DNA mod -0.3.
`COC(=O)CN1C(=S)N(c2ccccc2)C(=O)/C1=C/c1ccc(-c2ccc(Cl)cc2)o1` gave S aureus helic -11 and MgrA-DNA mod -1.1.
COc1ccccc1Nc1nc(Nc2cccc(C(F)(F)F)c2)nc(N2CCOCC2)n1 was read as S aureus helic 1 and MgrA-DNA mod -0.5.
CN=c1scc(-c2ccccc2)n1/N=C/c1ccsc1 was read as S aureus helic 11.
COc1cccc(CNC(=O)CCCN2C(=O)COc3ccc(C)cc32)c1 was read as S aureus helic -7.
For Cc1oc2ncn(C)c(=O)c2c1C(=O)OCc1c(F)cccc1Cl the results were S aureus helic 16.
For Cc1ccc(S(=O)(=O)Nc2ccccc2Oc2ccccc2)cc1 the results were MgrA-DNA mod -0.4.
For COc1ccc(C(=O)c2c[nH]cc2-c2ccc(C)cc2)cc1OC the results were MgrA-DNA mod 0.0.
`COc1ccc(N)c(Sc2ccc(Cl)cc2)n1` gave MgrA-DNA mod -0.9.
`CC(=O)NN(C)c1ccc(C(F)(F)F)cc1NC(=O)c1sc2ccccc2c1Cl` gave MgrA-DNA mod 16.
Screening O=C(NCC(=O)N1CCCCC1)c1ccccc1 returned S aureus helic 5 and MgrA-DNA mod 0.9.
CCC(C)[C@@H](C(=O)Nc1ccc2c(c1)OCO2)N1Cc2ccccc2C1=O (some centres not stated) was read as S aureus helic -3.
`COc1ccc(CCNC(=O)c2ccc3c(c2)NC(=O)/C(=C\c2ccc(C)cc2)S3)cc1OC` gave S aureus helic 15 and MgrA-DNA mod 2.4.
Screening Cc1cc(C)nc(NN)n1 returned S aureus helic -11 and MgrA-DNA mod -1.0.
`O=C(COc1cccc(Cl)c1)NC1CCCCC1` gave S aureus helic 2.
Screening COc1ccc(S(=O)(=O)Nc2ccc3c(c2)CS(=O)(=O)C3)cc1 returned MgrA-DNA mod 0.1.
C=CCOC(=O)C1=C(C)NC(S)=C(C#N)C1c1ccsc1 (configuration not stated) was read as MgrA-DNA mod 7.3.
O=C(NCCCn1ccnc1)c1cc(NS(=O)(=O)c2cccs2)cc(NS(=O)(=O)c2cccs2)c1 was read as S aureus helic -12.
`COc1cc(/C=C/C(=O)OCCOc2ccccc2)ccc1O` gave S aureus helic -7.
For COc1ccc(C(=O)O)cc1NC(=S)NC(=O)Cc1ccc(Cl)cc1 the results were S aureus helic 4 and MgrA-DNA mod 0.6.
`Cc1onc(-c2ccccc2)c1-c1nc2ccccc2c(=O)o1` gave MgrA-DNA mod 1.1.
Cn1c(O)c(C=Nc2ccc(N3CCOCC3)c(Br)c2)c(=O)n(C)c1=S was read as S aureus helic -1 and MgrA-DNA mod 9.2.
Screening CC(C)(C)c1cc(N=NC(=O)c2ccco2)cc(C(C)(C)C)c1O returned S aureus helic 1 and MgrA-DNA mod 1.6.
Cc1c(C)c(C)c(CN2C(=O)c3ccccc3C2=O)c(C)c1C was read as MgrA-DNA mod 0.3.
`N#Cc1sccc1CS(=O)c1ccc(Cl)cc1` (configuration not stated) gave MgrA-DNA mod 0.6.
Cc1c(C(=O)OC(C)C(=O)Nc2ccc(S(N)(=O)=O)cc2)oc2ccc(Br)cc12 (configuration not stated) was read as S aureus helic 2.
CCS(=O)(=O)c1ccccc1C(=O)Nc1nc2c(s1)CCCC2 was read as S aureus helic 4.
COc1ccc(C(=O)CNc2ccccc2C#N)cc1 was read as S aureus helic 4 and MgrA-DNA mod -1.7.
`Cc1nnc(C)n1/N=C\c1cccnc1` gave S aureus helic -12 and MgrA-DNA mod -2.1.
CN(C)S(=O)(=O)c1cccc(C(=O)Oc2ccccc2C#N)c1 was read as S aureus helic 10.
CC(Sc1nnc(Nc2ccc(Oc3ccccc3)cc2)s1)C(=O)NC(C)(C#N)C(C)C (configuration not stated) was read as S aureus helic -12.
Screening COc1cc(CNn2cnnc2)ccc1OCC(=O)NC(C)(C)C returned S aureus helic 11 and MgrA-DNA mod -2.6.
CC(C)(C)c1cc(C(C)(C)C)n(-c2ccc(-n3cccc3)cc2)n1 was read as MgrA-DNA mod -1.1.
COc1cccc(OCCn2cc(C(=O)c3ccco3)c3ccccc32)c1 was read as S aureus helic -13.
For Nc1ccccc1SCc1cccc(Cl)c1F the results were MgrA-DNA mod 0.2.
C=CCSc1nc2c(C(=O)OCC)nnn2c2ccccc12 was read as MgrA-DNA mod -2.0.
`COc1ccc(CC(=O)Nc2ccc(N3CCOCC3)cc2)cc1OC` gave MgrA-DNA mod -0.2.
Screening CCOC(=O)c1cnc(SC)nc1Nc1ccccc1 returned S aureus helic 13 and MgrA-DNA mod 0.0.
Screening CC(=O)N1CCN(S(=O)(=O)c2cccc(C(=O)Nc3ccc(N(C)C)cc3)c2)CC1 returned S aureus helic 1.
For N/C(CCN1CCCCC1)=N\O the results were S aureus helic -9.
For O=C(O)Cc1nc2ccc(Cl)cc2[nH]1 the results were S aureus helic -11 and MgrA-DNA mod 0.1.
Screening CCC(CC)NC(=O)C(C)Oc1ccccc1 (configuration not stated) returned S aureus helic 16 and MgrA-DNA mod -1.0.
`CC1CCCC(C)N1c1nnc(N)s1` (configuration not stated) gave S aureus helic 11.
Screening CN(C)C(=O)N1CCN(Cc2ccc3c(c2)OCO3)CC1 returned S aureus helic -10 and MgrA-DNA mod -3.5.
Screening O=C1/C(=C/c2ccc(F)cc2)Cc2ccccc21 returned MgrA-DNA mod -0.1.
Screening CCOC(=O)c1ccc(N=C2SC(C(=O)Nc3cccc(OCC)c3)CC(=O)N2C)cc1 (configuration not stated) returned MgrA-DNA mod -1.7.
Screening c1ccc(-c2ccc(Oc3ncnc4c3oc3ccccc34)cc2)cc1 returned S aureus helic -15.
Screening CCCCC(=O)Nc1ccc(N2CCCC2)cc1 returned MgrA-DNA mod 1.0.
For O=C(O)CCS(=O)(=O)c1ccc(Cl)cc1 the results were S aureus helic 10.
`COc1ccc(OC)c(C(=O)c2oc3ccc(OC)cc3c2N)c1` gave S aureus helic 2.
For COc1ccccc1-n1c(O)c(C=NCC2(C)CC(O)CC(C)(C)C2)c(=O)[nH]c1=O (configuration not stated) the results were MgrA-DNA mod -8.1.
Screening O=C(NCC1CCCO1)Nc1ccc(Cl)cc1 (configuration not stated) returned S aureus helic 7 and MgrA-DNA mod 4.1.
`CCc1ccc(N2CC34C=CC(O3)C(C(=O)OC)C4C2=O)cc1` (configuration not stated) gave S aureus helic -3 and MgrA-DNA mod -2.7.
Screening C=CCn1c(C)cc(-c2csc(NCc3ccccc3)n2)c1C returned S aureus helic 1.
`CC1CCCCC1NC1=NCCCS1` (configuration not stated) gave S aureus helic 3 and MgrA-DNA mod -1.4.
Screening COc1cc(C(=O)NC2CCN(C)CC2)nc2ccccc12 returned S aureus helic 1.
Screening CCOC(=O)c1c(NC(=O)c2cccc(Cl)c2)sc(C(=O)Nc2cc(C(F)(F)F)ccc2Cl)c1C returned MgrA-DNA mod -1.8.
Screening CCc1ccccc1NC(=O)CN(C)CC(=O)NC1CC1 returned S aureus helic -17.
For CC(C)Cn1c(SCc2ccccc2)nnc1-c1ccncc1 the results were S aureus helic 3 and MgrA-DNA mod -0.7.
Screening COCCn1c(CN2C(=O)c3ccccc3C2=O)nc2cccnc21 returned S aureus helic 37.
For Cc1nn(-c2ccccc2)c(N)c1C(O)(C(F)(F)F)C(F)(F)F the results were S aureus helic 1.
Screening CN(C(=O)c1cc(-c2ccc(O)cc2)on1)c1ccccc1 returned S aureus helic -5.
Screening CC12CCC(C(=O)N3CCc4ccccc4C3)(CC1=O)C2(C)C (configuration not stated) returned S aureus helic -29 and MgrA-DNA mod 3.7.
For CCCNC(=O)COc1ccc(-c2nn(C)c(=O)c3ccccc23)cc1 the results were S aureus helic -22.
`O=C(CSc1nnc2n1CCCN2)c1ccccc1` gave MgrA-DNA mod -0.1.
For CCOCC(=O)Nc1ccc(I)cc1 the results were S aureus helic 11 and MgrA-DNA mod -0.1.
For Cn1c(=O)c(=O)n(C)c2cc(S(=O)(=O)N3CCCC3C(=O)O)ccc21 (configuration not stated) the results were S aureus helic 2 and MgrA-DNA mod -4.5.
Fc1ccc(/C=C/c2onc3ccccc23)cc1 was read as MgrA-DNA mod 0.1.
Screening COc1ccc2nc3sc(C(=O)N4CCCC4)c(N)c3cc2c1 returned S aureus helic -102 and MgrA-DNA mod 21.
Screening COc1ccc(CCNC(=O)c2nn(C)cc2Cl)cc1 returned S aureus helic 12.
For O=C(O)CC1S/C(=N/N=C2CCCC2)NC1=O (configuration not stated) the results were S aureus helic 3 and MgrA-DNA mod 2.3.
Screening O=C(NCCN1CCCCC1)/C(=N\O)c1ccccc1 returned S aureus helic 11.
Cc1ccc(Cl)cc1N(C)C(=O)[C@H]1[C@@H]2C[C@@H]3[C@H]1C(=O)O[C@@H]3C2 was read as S aureus helic -11.
For COc1ccc(CNS(=O)(=O)c2ccc3[nH]c(=O)oc3c2)c(OC)c1 the results were S aureus helic 21.
Screening O=C(/C=C/Oc1ccc(Cl)cc1)c1ccc(Br)cc1 returned MgrA-DNA mod 1.9.
Screening COc1ccc(/C=C2/SC(=S)N(CCC(=O)Nc3ccccc3)C2=O)cc1 returned S aureus helic 6 and MgrA-DNA mod 0.4.
Screening CCn1cc(/C=C2/C(=O)N(c3ccccc3)N=C2C)c2ccccc21 returned S aureus helic -1.
`N#Cc1ccc(Cl)cc1NC(=O)COC(=O)c1n[nH]c2ccccc12` gave S aureus helic -4.
Screening COc1ccc2cc(C#N)c(SCC(=O)N3c4ccccc4CC3C)nc2c1 (configuration not stated) returned S aureus helic -18 and MgrA-DNA mod 2.0.
COc1ccc(-c2cc(C(N)=O)[nH]n2)c(F)c1 was read as S aureus helic 4 and MgrA-DNA mod -1.0.
Screening N#CCC(=O)N1CCCC1 returned MgrA-DNA mod 0.8.
`COc1ccc(/C=C2/Sc3ccc(C(=O)NC4CCCc5ccccc54)cc3NC2=O)cc1OC` (configuration not stated) gave S aureus helic -4 and MgrA-DNA mod 0.6.
`O=C1CC(NC23CC4CC(CC(C4)C2)C3)C(=O)N1Cc1ccc2c(c1)OCO2` (configuration not stated) gave S aureus helic 17 and MgrA-DNA mod -1.1.
CC(=O)NC1CC(C)(C)N(OC(=O)c2ccccn2)C(C)(C)C1 was read as S aureus helic -12 and MgrA-DNA mod 1.0.
`Cc1ccc(-c2nsc(SCC(N)=O)n2)cc1` gave S aureus helic -1 and MgrA-DNA mod 0.8.
Screening CC1c2cccc(O)c2CC2=C(O)C3(O)C(O)=C(C(N)=O)C(=O)C(N(C)C)C3C(O)C21 (configuration not stated) returned S aureus helic 11 and MgrA-DNA mod 28.
Screening Cc1ccc(C(CNC(=O)Nc2ccccc2)N2CCN(C)CC2)cc1 (configuration not stated) returned S aureus helic 6.
Screening CCOC(=O)c1c(-c2ccccc2)oc2ccc(OC)cc12 returned S aureus helic -13.
Screening Nn1c(C2CC2)n[nH]c1=S returned S aureus helic 6.
Screening O=C(c1cc(C(=O)Nc2ccccc2)c(=O)n(-c2ccccc2)c1)c1cc(Cl)ccc1O returned S aureus helic 10 and MgrA-DNA mod -0.3.
For CCCCN1C(=O)C2ON(c3ccccc3)C(c3ccc(OC)cc3OC)C2C1=O (configuration not stated) the results were S aureus helic -25.
`O=C(c1cc2ccccc2oc1=O)N1CCN(c2ccc(N3CCOCC3)nn2)CC1` gave S aureus helic -17.
For CC(C)CC(=O)Nc1cccc2c1C(=O)N(c1ccccc1)C2=O the results were S aureus helic 8 and MgrA-DNA mod -2.4.
Cc1ccc(-n2c(NN)nc3sc4c(c3c2=O)CCCC4)cc1 was read as S aureus helic -4 and MgrA-DNA mod 3.0.
N#CCOC(=O)COc1ccc(Cl)cc1Cl was read as S aureus helic 36.
Cc1ccc(S(=O)(=O)N2CCN(CCOC(=O)c3ccccc3)CC2)cc1C was read as S aureus helic 5.
Screening Cc1cc2c3c([nH]c2cc1S(=O)(=O)N1CCCC1)CCCC3=O returned S aureus helic 4.
For Nc1cnc(Oc2c(Cl)cccc2Cl)c(C(F)(F)F)c1 the results were MgrA-DNA mod -1.2.
CCN1CCCC1CNC(=O)c1cc(S(N)(=O)=O)ccc1OC (configuration not stated) was read as MgrA-DNA mod 2.1.

Among those listed so far, these have two or more sulfur atoms:
For O=S(=O)(NC1CCN(Cc2ccccc2)CC1)c1cccs1 the results were S aureus helic -32.
CN=c1scc(-c2ccccc2)n1/N=C/c1ccsc1 was read as S aureus helic 11.
Screening COc1ccc(S(=O)(=O)Nc2ccc3c(c2)CS(=O)(=O)C3)cc1 returned MgrA-DNA mod 0.1.
C=CCOC(=O)C1=C(C)NC(S)=C(C#N)C1c1ccsc1 (configuration not stated) was read as MgrA-DNA mod 7.3.
O=C(NCCCn1ccnc1)c1cc(NS(=O)(=O)c2cccs2)cc(NS(=O)(=O)c2cccs2)c1 was read as S aureus helic -12.
`N#Cc1sccc1CS(=O)c1ccc(Cl)cc1` (configuration not stated) gave MgrA-DNA mod 0.6.
CCS(=O)(=O)c1ccccc1C(=O)Nc1nc2c(s1)CCCC2 was read as S aureus helic 4.
CC(Sc1nnc(Nc2ccc(Oc3ccccc3)cc2)s1)C(=O)NC(C)(C#N)C(C)C (configuration not stated) was read as S aureus helic -12.
Screening COc1ccc(/C=C2/SC(=S)N(CCC(=O)Nc3ccccc3)C2=O)cc1 returned S aureus helic 6 and MgrA-DNA mod 0.4.
`Cc1ccc(-c2nsc(SCC(N)=O)n2)cc1` gave S aureus helic -1 and MgrA-DNA mod 0.8.
